Redox H2O2 prof = compounds producing H2O2 with reducing agent – biochemical, NIH compound library profiling, artefact control for MLSCN library redox annotation, primary screen | DTT-dependent redox cycling H2O2, phenol red/HRP absorbance; 100% = 100 µM peroxide control, 0% = buffer | 200,000 compounds, 0.03% hits | activation, % at 10 µM;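 active = activation of at least 50% relative to the plate's high and low controls in the primary single-dose screen; inactive = activation below 50%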;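 also: compound incubated with DTT at 0.8 mM final as the reducing agent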
* marks the source's active call; other numbers are inactive results; & = joins results of further samples. These rows are one share of the data; most or all hits stand in other tables.

The opening two records (preview)
SMILES	Redox H2O2 prof
COc1ccc(/C=C/C(=O)O)cc1OC	-0.3
COc1cc2nc(N3CCN(C(=O)C4CCCO4)CC3)nc(N)c2cc1OC (stereo not drawn)	0.5&-0.5

Main list (from the top)
SMILES	Redox H2O2 prof
COc1ccc(/C=C/C(=O)O)cc1OC	-0.3
COc1cc2nc(N3CCN(C(=O)C4CCCO4)CC3)nc(N)c2cc1OC (stereo not drawn)	0.5&-0.5
COc1ccc2cc([C@H](C)C(=O)O)ccc2c1	0.4
O=C(O)c1cccnc1SCCc1ccccc1	-0.4
NC1C2CN(c3nc4c(cc3F)c(=O)c(C(=O)O)cn4-c3ccc(F)cc3F)CC12 (stereo not drawn)	-0.5
Nc1nc2c(ncn2COCCO)c(=O)[nH]1	0.1
CCN(CC)CCNC(=O)c1ccc(N)cc1	0.6

Ordered by the number under Redox H2O2 prof (rising): 3 of the compounds above.
| Structure | Redox H2O2 prof |
| --- | --- |
| O=C(O)c1cccnc1SCCc1ccccc1 | -0.4 |
| COc1ccc(/C=C/C(=O)O)cc1OC | -0.3 |
| Nc1nc2c(ncn2COCCO)c(=O)[nH]1 | 0.1 |
